Source: PubChem BioAssay
PINK1 expr mod: A Quantitative High throughput Screen to Identify Chemical Modulators of PINK1 Expression; PINK1 immunofluorescence, high-content cytometry, 24 h; Potency, µM (titrated, usually from 76.6 µM), inactives show top-dose activation (PINK1 increase), usual class: activators; 410,000 tested, 0.2% active; AID 624263, 2012; active = well fitted activation curve with a large enough effect; inconclusive = small, poorly fitted or top-dose-only effect; inactive = flat fitted curve, though single readings scatter; cell line not stated here;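 also: potency is read from the fitted curve at half-maximal effect; % of control where 0% means no effect; nearly all actives have a fitted effect of over 65% in size; a mitochondrial uncoupler was the plate control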
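Fluorescence from anti-PINK1 antibody, together with nuclear and cell stains, was scanned on a laser-scanning cytometer. Before staining, stable-line cells were incubated 24 hours with compounds at 5 concentrations; primary antibody 12 h at 10 degrees C.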
TRPML1 ag: qHTS for Agonists of the Human Mucolipin Transient Receptor Potential 1 (TRPML1); 410,000 tested, 0.12% active; activation, % (test concentration not listed); AID 624414, 2012; Mucolipin-1 (Homo sapiens), Q9GZU1; TRPML1-expressing cells, Ca2+ dye fluorescence, FDSS; host cell line not named in the record; reference of the full effect not given here; in the data active = activation above about 50%; inconclusive = about 30% to 50%; inactive = below about 30%; also: 0% is about no effect; the text of the record puts the active cut at 80%
Target sequence (Q9GZU1 whole entry, looked up): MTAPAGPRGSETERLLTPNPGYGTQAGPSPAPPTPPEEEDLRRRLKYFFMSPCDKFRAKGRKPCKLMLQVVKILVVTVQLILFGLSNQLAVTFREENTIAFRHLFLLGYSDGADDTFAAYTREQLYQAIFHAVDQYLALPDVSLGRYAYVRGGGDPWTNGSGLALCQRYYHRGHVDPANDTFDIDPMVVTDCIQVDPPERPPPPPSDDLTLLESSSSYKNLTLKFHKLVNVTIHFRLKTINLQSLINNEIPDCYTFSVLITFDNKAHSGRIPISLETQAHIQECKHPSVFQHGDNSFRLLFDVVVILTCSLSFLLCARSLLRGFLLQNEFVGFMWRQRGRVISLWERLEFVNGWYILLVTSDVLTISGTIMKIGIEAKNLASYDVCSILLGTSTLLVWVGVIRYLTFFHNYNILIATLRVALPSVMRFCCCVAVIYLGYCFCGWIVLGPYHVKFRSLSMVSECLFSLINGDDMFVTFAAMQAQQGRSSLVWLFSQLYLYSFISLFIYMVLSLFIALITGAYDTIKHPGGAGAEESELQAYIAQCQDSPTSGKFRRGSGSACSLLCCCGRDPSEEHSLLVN
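Tet-induced TRPML1-DL cells, 1,500 per well, cultured overnight, were loaded with a no-wash Ca2+ dye for 45–90 min. Calcium fluorescence was recorded on the FDSS for 110 s after compound addition, before the EC80 agonist (4 uM 54-4) was added.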
The depositor's hits bear a star; ? = inconclusive; & = joins results of further samples.

Screens in order: PINK1 expr mod | TRPML1 ag
Cc1[nH]c2ccccc2c1C(=O)C(C)Sc1nc2ccccc2c(=O)n1Cc1cccnc1 (stereo not given)
→ 0.0% | -0.6
C(=C\c1ccnc2ccccc12)/c1ccc(N2CCN(c3ccc(/C=C/c4ccnc5ccccc45)cc3)CC2)cc1
→ 0.4% | 11
NC(=O)CSc1ccc2nnc(-c3ccncc3)n2n1
→ 0.5% | -0.5
CCN1CCN(c2ccc(/C=C/c3ccnc4ccccc34)cc2)CC1
→ 0.5% | 5.0
c1ccc(-c2ccc(-c3csc4ncnc(Sc5nnnn5-c5ccccc5)c34)cc2)cc1
→ 0.2% | -0.4
O=C(C[n+]1ccccc1)c1ccc(O)c(O)c1
→ 1.0% | -0.1
O=C(NCCc1nc2ccccc2n1CCOc1cccc2ccccc12)C1CCCCC1
→ 14% | 0.3
COc1cc(OC)c(/C=C/c2nc3ccccc3o2)c(OC)c1
→ 0.1% | -0.8
CN1CCCc2ccccc21
→ 0.7% | -0.5
Nc1c(S(=O)(=O)O)cc(Nc2ccc(Nc3nc(Cl)nc(Nc4ccc(S(=O)(=O)O)cc4)n3)c(S(=O)(=O)O)c2)c2c1C(=O)c1ccccc1C2=O
→ -1.2% | -0.6
Nc1cc([N+](=O)[O-])cc(N)c1N
→ 0.7% | -1.1
CC(c1ccccc1)n1c(-c2ccccc2)n[nH]c1=S (stereo not given)
→ 2.1% | -0.3
Cc1ccc(C)c2c1NC(C(=O)O)C1CC=CC21 (stereo not given)
→ -0.1% | 0.4
O=C(COC(=O)c1ccccc1OCc1cccc(Br)c1)Nc1ccc(Br)cc1
→ 0.7% | 0.4
COc1ccc2c(c1OC)C(=O)OC2c1ccc(O)cc1 (stereo not given)
→ 0.2% | -1.2
O=C(Cc1ccc(OCCc2ccccc2)cc1)NO
→ -0.6% | -0.8
COc1ccc(-c2nc3ccc(NC(=O)COC(C)=O)cc3c(=O)n2Cc2ccccc2)cc1COc1ccc(NC(C)=O)cc1
→ -0.4% | -0.4
CC(C)(C)c1ccc(OCCn2c(CCNC(=O)C3CCCCC3)nc3ccccc32)cc1
→ 7.8% | 0.4
C=C1C=C(C(F)F)n2ncc(C(=O)N3CCc4ccccc4C3)c2N1
→ -0.1% | -1.2
COc1ccc(C2Nc3ccc(NC(C)=O)cc3C(=O)N2Cc2ccccc2)cc1COc1ccc(NC(C)=O)cc1 (stereo not given)
→ 1.5% | -0.1
c1ccc(Nc2nc(Nc3ccccc3)nc(-n3cccn3)n2)cc1
→ -0.3% | -1.2
Cn1nc(-c2ccc(F)cc2)nc2c(=O)n(C)c(=O)nc1-2
→ -0.6% | -0.2
O=C1C(=O)C(c2ccc(O)cc2O)Oc2cc(O)cc(O)c21 (stereo not given)
→ 1.1% | 0.4
CCNc1nc(C#N)nc(NCC)n1
→ -0.1% | -0.2
C1=CN2CC=Cc3cc(/C=C/c4ccnc5ccccc45)cc(c32)C1
→ 8.9% | 14
CC(=O)Nc1ccc(/C=C/c2ccnc3ccccc23)cc1[N+](=O)[O-]
→ 0.0% | 0.6
CN(C)c1ccc(/C=C/c2sc3ccccc3[n+]2CCCCI)cc1
→ ? | 0.4
COc1ccc(CCNc2ncnc3nc[nH]c23)cc1
→ -0.6% | -0.9
Cc1ccnc2c([N+](=O)[O-])cccc12
→ 0.1% | -0.3
CC(CCC(C)[n+]1cccc(C#N)c1)[n+]1cccc(C#N)c1 (stereo not given)
→ 0.0% | 0.0
Cc1ccc2nc(-c3ccc(N=Nc4cc(S(=O)(=O)O)c5ccccc5c4O)cc3)sc2c1S(=O)(=O)O
→ -0.5% | -1.0
Nc1ccc(/C=C2\C=Cc3ccccc32)cc1
→ 2.8% | -1.0
O=C(COC(=O)C12CC3CC(CC(C3)C1)C2)NCC1CCCO1 (stereo not given)
→ 0.4% | -0.2
N=C(N)c1ccc(-c2ccc(-c3ccc(C(=N)N)cc3)o2)cc1
→ 0.1% | -0.4
N#Cc1nc(N2CCCCC2)nc(N(c2ccccc2)c2ccccc2)n1
→ 2.3% | -0.4
CN1CCc2[nH]c3ccc(Cl)cc3c2C1
→ -1.0% | -0.1
CN(c1ccc(/C=C/c2ccccc2)cc1)P1(=O)NCCCO1 (stereo not given)
→ 1.0% | -0.4
Cc1cc([N+](C)(C)C)cc(C)c1/C=C/c1ccnc2ccccc12
→ 1.6% | -0.3
CN(C)c1ccc(/C=C/c2ncnc3ccccc23)cc1
→ ? | 82*
O=C(Nc1ccc(OC(F)F)cc1)c1nc(SCc2ccccc2F)ncc1Cl
→ 1.7% | 1.0
Nc1ccc(/C=C/c2ccnc3ccccc23)cc1[N+](=O)[O-]
→ 2.6% | -0.1
Cc1ccc(C)c(Nc2nc(NCc3ccco3)nc3nccnc23)c1
→ 0.8% | -0.3
Nc1nc(=S)c2n[nH]nc2[nH]1
→ 2.6%&0.1% | -0.3&-0.5
CCCN1C(=O)c2ccccc2NC1c1ccc(OC)c(COc2cccc(C)c2C)c1 (stereo not given)
→ 0.2% | -0.5
O=C(COc1ccccc1C(=O)Nc1ccccc1)Nc1cccc(F)c1
→ 3.2% | -0.1
COc1ccc(C(=O)CCN(C)C)c2ccccc12
→ 1.6% | 12
COc1[nH]c(/N=C/c2ccco2)c(C#N)c1C#N
→ -0.7% | 4.9
Fc1ccc(CNc2ncnc3nc[nH]c23)cc1
→ 0.0%&0.5% | -0.4&-0.7
Nc1ncnc2c1ncn2COC(CO)CO
→ 2.0% | -0.5
COC1=C(OC)C(=O)c2ccccc2C1=O
→ 2.3% | -0.5
C(=C\c1nc2ccccc2s1)/c1ccc2c(c1)OCO2
→ 3.6% | -0.2
COc1cc2nc(N3CCCCC3)nc(NC3CCN(C)CC3)c2cc1OC
→ -0.9% | -0.3
O=S(=O)(c1ccccc1Cl)N1CCN(c2nc(-c3ccccc3)nc3ccccc23)CC1
→ 1.1% | -0.2
Nc1ccc(/C=C/c2nc3ccccc3s2)cc1
→ 1.0% | -0.2
COc1ccc(C#Cc2c[nH]c(=O)c3cncnc23)cc1OC
→ 0.2% | -0.8
COc1cc(/C=C2\C=Cc3ccccc32)ccc1N(C)C
→ 5.5% | -0.8
CCN(CC)CCCC(C)Nc1ccnc2cc(Cl)ccc12 (stereo not given)
→ -0.6% | 0.6
CN(C)c1ccc(/C=C2\Cc3ccccc3C2=O)cc1
→ 0.4% | 25
O=c1[nH]cc(C#Cc2ccccc2)c2ncncc12
→ -0.3% | -0.8
Cc1ccc(S(=O)(=O)N2CCN(c3nc(-c4cccnc4)nc4ccccc34)CC2)cc1
→ -0.2% | -0.5

The results go on.
Screens in order: PINK1 expr mod | TRPML1 ag
CC(=O)c1ccccc1S(=O)(=O)N1CCN(c2nc(-c3cccs3)nc3ccccc23)CC1
→ -0.1% | 0.5
Cc1ccc2[nH]c(=O)c(CN(CCO)Cc3nnnn3Cc3ccco3)cc2c1
→ -0.1% | -0.6
CN1CC[C@H](c2c(O)cc(O)c3c(=O)cc(-c4ccccc4Cl)oc23)[C@@H](O)C1
→ -1.2% | 0.1
c1coc(CNc2ncnc3c2nc2n3CCCC2)c1
→ 0.0% | -0.4
Cc1ccc(-c2[nH]ncc2CNCc2ccc(CN(C)C)cc2)cc1
→ 0.2% | 0.3
Cc1nc([N+](=O)[O-])cn1CC(O)c1ccc2c(c1)OCCCO2 (stereo not given)
→ -0.9% | -0.3
Cc1ccc(-c2nc(=Nc3c(C)cc(C)cc3C)sn2-c2ccccc2)cc1
→ ? | 8.1
O=C(Nc1ccc2nccnc2c1)N1CCCCCC1
→ 1.7% | 0.1
Cc1ccc(S(=O)(=O)N2CCN(c3nc(N(C)c4cc(Cl)ccc4O)nc4ccccc34)CC2)cc1
→ 0.3% | -0.5
Cc1ccc(-c2nc3c(c(SCC(=O)Nc4cccc(C(=O)O)c4)n2)Cc2cccc(C)c2O3)cc1
→ 0.5%&0.3% | -0.7&-0.6
CCCCc1oc2ccccc2c1C(=O)c1cc(I)c(N(CC)CCOCC)c(I)c1
→ 23% | -0.3
Cc1ccc(-c2nnc3ccc(SCC(N)=O)nn23)cc1
→ -1.0% | -0.6
O=C(Cc1ccc(OCCCCc2ccccc2)cc1)NO
→ 1.4% | -0.4
CN1N/C(=C\c2ccccc2)N=C2C(=O)N(C)C(=O)N=C21
→ 0.7% | 0.1
O=[N+]([O-])c1cccc(S(=O)(=O)N2CCN(c3nc(-c4cccs4)nc4ccccc34)CC2)c1
→ -0.1% | -0.8
COc1ccc(CCSc2n[nH]c(C(C)C)n2)cc1
→ 0.0% | -1.3
COc1cc2nc(N3CCN(C)CC3)nc(NC(C)C)c2cc1OC
→ 0.6% | 1.4
CN1CCc2c(c3cnc4cc(Cl)ccc4c3n2C)C1
→ -0.5% | 0.1
CN(C)c1ccc(/C=C/c2ccnc3ccc([N+](=O)[O-])cc23)cc1
→ -0.5% | 0.5
CN(C)c1ccc(C2C=Cc3ccccc32)c2ccccc12 (stereo not given)
→ 2.1% | -0.9
COc1cc2c(NC3CCN(C)CC3)nc(N3CCCN(C)CC3)nc2cc1OCCCN(C)C
→ 1.2% | 0.0
COc1cc2c(NC3CCN(C)CC3)nc(N3CCCN(C)CC3)nc2cc1OCCCCN(C)C
→ 0.1% | 0.2
C=C(c1nc2ccccc2s1)C1Cc2cccc3c2N(CCC3)C1 (stereo not given)
→ ? | -0.8
COc1ccc2c(c1)C=C/C2=C\c1ccc(N(C)C)cc1
→ 0.5% | -0.5
COc1ccc(C(=O)C2C(=O)C(=O)N(Cc3ccco3)C2c2cccs2)cc1 (stereo not given)
→ 0.2% | -0.5
COc1ccc(Cl)cc1N(C)c1nc(N2CCN(S(=O)(=O)c3ccc(C)cc3)CC2)c2ccccc2n1
→ 1.2% | -0.5
S=C(NCCCc1cnc[nH]1)NCCCN(Cc1ccc(Cl)cc1)c1ccc(-c2ccccc2)cn1
→ -0.7% | 0.5
CN(C)c1ccc(N=Nc2ccccc2C(=O)O)cc1
→ 2.4% | -0.8
C[N+]1(CC(=O)c2ccc(Oc3ccc(C(=O)C[N+]4(C)CCOCC4)cc3)cc2)CCOCC1
→ 0.6% | -0.8
CC#CCOC(=O)c1c(C)nc2sc3c(c2c1N)CC[C@@H](O)C3
→ 5.5% | -0.6

Taken from above:
Under PINK1 expr mod, `C[N+]1(CC(=O)c2ccc(Oc3ccc(C(=O)C[N+]4(C)CCOCC4)cc3)cc2)CCOCC1` shows 0.6%
Under PINK1 expr mod, `Cc1nc([N+](=O)[O-])cn1CC(O)c1ccc2c(c1)OCCCO2` (stereo not given) shows -0.9%

(listing goes on)
Screens in order: PINK1 expr mod | TRPML1 ag
COc1cc2nc(Cl)nc(NC3CCN(Cc4ccccc4)CC3)c2cc1OC
→ 0.3% | -0.2
COc1ccccc1C1N=C(Nc2nc3ccccc3o2)NC2=C1C(=O)CC(C)(C)C2 (stereo not given)
→ 2.6% | -0.6
CCOc1ccccc1NC(=O)c1nc(SCc2ccccc2F)ncc1Cl
→ 1.0% | 0.0
O=C(Nc1ccc(Cl)cc1)c1cnn2c1NC(=C1CC1)C=C2C(F)F
→ 0.7% | -0.5
CCn1c(SC(C)C(=O)Nc2ccc(C)cc2)nnc1-c1ccccc1 (stereo not given)
→ 0.1% | -0.9
CC1(C)OB(c2cnc(C#N)nc2)OC1(C)C
→ -0.4% | -0.4
CC1(C)OC(=O)C2(Cc3ccc(Br)cc3N3CCCCC32)C(=O)O1 (stereo not given)
→ -0.5% | 0.1
O=C(NCCc1nc2ccccc2n1CCCOc1ccccc1)C1CCCCC1
→ 3.6% | -0.3
C1=Cc2ccccc2/C1=C\c1cc2c3c(c1)CCCN3CCC2
→ 1.8% | 3.0
Nc1ccc(/C=C/c2ccnc3ccccc23)cc1
→ -0.4% | 8.5
CNCC(=O)c1c[nH]c2ccccc12
→ 0.0% | -0.7
CN(C)c1ccc(/C=C/c2nc3ccccc3s2)cc1Cl
→ 0.6% | 0.3
COc1ccccc1NC(=O)c1nc(SCc2ccccc2F)ncc1Cl
→ -0.2% | 0.1
Cc1ccc(S(=O)(=O)N2CCN(c3nc(-c4cccs4)nc4c3ncn4COC(=O)C(C)(C)C)CC2)cc1
→ 1.8% | -0.4
O=S(=O)(c1ccc(F)cc1F)N1CCN(c2nc(-c3cccs3)nc3ccccc23)CC1
→ 0.1% | 0.2
OB(O)c1cc2ccccc2o1
→ 1.1% | -0.4
CSc1ccc(/C=C2\C=Cc3cc([N+](=O)[O-])ccc32)cc1
→ 8.4% | -0.8
COc1ccc(CN(Cc2ccccc2)C(=O)C2CC2)cc1COc1ccc(NC(C)=O)cc1
→ 0.9% | -0.3
C[n+]1ccc(CO)cc1
→ 3.8% | -0.3

Sorted by molecular weight (high to low): part of the list above.
Screens in order: PINK1 expr mod | TRPML1 ag
COc1ccccc1C1N=C(Nc2nc3ccccc3o2)NC2=C1C(=O)CC(C)(C)C2 (stereo not given)
→ 2.6% | -0.6
CCn1c(SC(C)C(=O)Nc2ccc(C)cc2)nnc1-c1ccccc1 (stereo not given)
→ 0.1% | -0.9
CN(C)c1ccc(/C=C/c2nc3ccccc3s2)cc1Cl
→ 0.6% | 0.3

An excerpt; rates above refer to the full screens.
